# ugtP null kill: compounds lethal to S. aureus RN4220 ugtP deletion mutant; growth inhibition, % (concentration not given with the values); 330,000 compounds, 0.54% hits; OD600 growth, 16 h; some inactives read as strong as hits;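 active = z-score under -3 and OD600 up to 0.15 on both plates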;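 also: plate controls were untreated wells for no effect and antibiotic for full effect; wells of about 80 µL received 100 nL stock; the first replicate is given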
# Mtb hypoxia inh: Mtb hypoxia fluorescent reporter inhibition; M. tuberculosis hypoxia-regulated fluorescent reporter, fluorescence; 300,000 compounds, 0.1% hits; fluorescence inhibition, % (no concentration beside the values); AID 1159583;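 active = 35 to 45% if threefold the growth effect, above 45% if 1.5-fold the growth effect; inactive = the rest, general growth blockers included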;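 also: wells of about 50 µL received 100 nL stock; 0% = vehicle wells and 100% = reference inhibitor wells; whole bacteria with a GFP reporter of the hypoxia response; strong numbers were not always called active; many hits fall short of the cut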
# Sa RN4220 lethal: S. aureus RN4220 growth inhibition | OD600, 16 h | inhibition, % (concentration not given with the values) | 330,000 compounds, 0.33% hits;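 active = z-score of -3 or lower and OD600 up to 0.18 on both plates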;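 also: plate controls were untreated cells for no effect and reference antibiotic for full effect; stock transfer was 100 nL into about 80 µL; one replicate is shown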
# PrP UTR inh: inhibition of PrP 5' UTR reporter expression. cell-based PrP 5' UTR mRNA reporter, plate reader. inhibition, % (concentration not given with the values). 340,000 compounds, 0.35% hits;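 active = every replicate at 50% or more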;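 also: 0 = median of the neutral control wells; tested in H4 reporter cells; numbers are from one replicate; inactives centre near -14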
# BJeLR viability: kills HRASV12-expressing BJeLR cells; BJeLR (HRASV12) viability, CellTiter-Glo ATP luminescence, 48 h; reference of the scale not given here; inhibition, % (test concentration not listed); AID 1554; 300,000 compounds, 0.17% hits;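 active = replicate mean above 50%; inconclusive = above 50% but judged a plate artefact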;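 also: 50 nL library stock added to about 25 µL; numbers are from one replicate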
# Bead autofluor: counter-screen for toxin protease inhibitors: compound fluorescence; fluorescence intensity (concentration not given with the values); compound autofluorescence counterscreen, microsphere flow cytometry; stronger effect = higher value; 360,000 compounds, 3.1% hits;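 active = at least 3 SD above the mean of all compounds, about 16000 in these data; inconclusive = too few beads counted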;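 also: 100 nL of 1 mM stock went into each well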
# Mtb hypoxia inh growth: also measured in Mtb hypoxia inh; calls as there; growth inhibition, %; measured here: M. tuberculosis growth (absorbance);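 0% = vehicle and 100% = reference antibiotic; read after six days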
# * marks the source's active call; other numbers are inactive results; u = inconclusive; x = not tested or not shown.
SMILES,ugtP null kill,Mtb hypoxia inh,Mtb hypoxia inh growth,Sa RN4220 lethal,PrP UTR inh,BJeLR viability,Bead autofluor
Cc1cc(C(=O)CCC(=O)N(C)CC(=O)Nc2ccccc2Br)c(C)s1,5.8,-0.9,-2.0,-0.3,-6.9,-9.4,u
N#CCCN(Cc1cccnc1)C(=O)Nc1cccc(Cl)c1,1.6,x,x,2.4,-3.1,-7.0,2437
CC1CCC(NC(=O)CCS(=O)(=O)c2ccc3c(c2)oc(=O)n3C)CC1 (stereo unspecified),6.4,13.4,5.2,3.3,-15.5,-8.3,5895
C/C(=N\NC(=S)Nc1ccc(F)cc1)C1CC1,x,x,x,x,5.7,9.5,5573
CCCN1CNC(=S)N(CC2CCCO2)C1 (stereo unspecified),-3.8,5.0,2.4,4.2,19.0,3.1,9519
COC1(OC)C(=N/O)/C(=N\O)CCC1O (stereo unspecified),x,x,x,x,-18.9,1.2,9196
Cc1ccc(S(=O)(=O)N2CCN(C(=O)Cc3ccccc3)CC2)cc1C,0.4,-1.1,4.4,1.4,-15.5,x,8030
O=C(Nc1ccc(N2CCCCC2)cc1)c1cc([N+](=O)[O-])cc([N+](=O)[O-])c1,3.5,12.2,8.7,5.0,-54.3,0.9,2308
CC(C)(C)NC(=O)CCN1CCOCC1,9.9,9.5,5.2,5.8,-13.0,-5.2,2487
CN(Cc1ccccc1)C(=O)c1ccc(NC(=O)Cc2ccc(NC(=O)C3CCN(C(=O)CCc4ccccc4)CC3)cc2)cc1,12.3,3.3,-3.1,4.7,-8.5,x,2855
C=CCN1C(=O)C(CC(=O)NCC)SC1=Nc1cc(Cl)ccc1Cl (stereo unspecified),-4.0,-1.7,-2.5,3.8,-22.7,-0.1,3897
Cc1nc(NS(=O)(=O)c2ccccc2)sc1NC(=O)Nc1ccc(Cl)cc1,3.6,-3.4,2.0,2.5,-10.8,6.1,4540
Cn1c(Oc2ccc(F)cc2F)c(C=O)c2ccccc21,-3.2,18.6,18.2,7.2,-13.6,-3.2,4154
COc1cc(Br)cc(CN2CCN(C/C=C/c3ccccc3)CC2)c1O,-3.7,4.4,2.8,-3.0,x,-8.9,11697
CCOC(=O)C1(Cc2ccc(OC)cc2)CCN(C(=O)c2ccc3[nH]ccc3c2)CC1,13.1,6.2,3.5,4.8,-35.6,3.1,4883
CCN1C(=O)N(CN2CCOCC2)C2C1N(CN1CCOCC1)C(=O)N2CC (stereo unspecified),1.2,x,x,3.2,-11.3,-12.3,3528
CC(Cc1ccccc1)=NNC(=O)c1ccc(F)cc1,4.0,4.1,8.2,0.4,x,x,x
CCc1c(C)nc(N)nc1N1N=C1SCC(=O)OC,20.1,2.8,5.9,1.9,-23.2,-21.2,4523
COc1cccc(CNCc2ccc3c(c2)OCO3)c1,5.1,13.2,1.3,-0.5,-66.6,0.6,3713
Cc1ccccc1CN1CCN(CC(=O)NCc2ccccn2)C1=O,11.3,7.1,5.2,2.9,-28.4,11.1,5132
O=[N+]([O-])c1ccc(-c2cn3c(n2)CCC3)cc1,-1.2,-3.3,-0.7,-3.4,-52.6,-4.0,u
Cc1cc(N2CCCCC2)nc(N2CCCCC2)n1,1.5,0.1,7.8,-0.8,-27.9,2.9,2489
C(#Cc1ccccc1)C[N+]1(CC#Cc2ccccc2)CCCCC1,9.7,-4.6,14.3,1.4,-54.2,6.6,4625
CCOc1ccc(NC(=O)CN(C)C(=O)CSCc2ccc(C)cc2)cc1OCC,9.1,2.2,-2.0,0.9,-6.5,9.2,4016
O=C(c1ccccc1)N(Cc1nc2ccccc2c(=O)[nH]1)C1CCCCC1,5.8,2.3,4.0,4.0,-18.5,5.4,3446

# Additional records
SMILES,ugtP null kill,Mtb hypoxia inh,Mtb hypoxia inh growth,Sa RN4220 lethal,PrP UTR inh,BJeLR viability,Bead autofluor
COC(=O)c1ccc(/C=N/NC(=O)C(=O)NCC2CCCO2)cc1 (stereo unspecified),x,x,x,x,-30.8,-8.0,4153
COc1cccc(-n2nnnc2SCC(=O)NC2CCCC2)c1,1.2,10.3,10.1,2.9,-12.8,-0.9,6698
COc1cc(NC(=O)c2cc(C)on2)cc(OC)c1OC,4.4,2.9,4.1,2.5,-11.3,1.4,9700
COc1ccc(NC(=O)CSc2nccn2Cc2ccccc2)c(OC)c1,-2.6,-7.7,-5.1,-4.5,-11.0,4.2,6083
O=c1[nH]c(CN2CCc3ccccc32)nc2scc(-c3cccs3)c12,-2.1,x,x,-3.2,-2.1,0.8,4481
CCCOc1nc(C)cc(COC)c1C(N)=O,13.4,3.9,6.2,6.7,-14.3,42.4,3092
Cc1ccc(NC(=O)c2ccc(NC(=O)C3CCCCC3C(=O)O)cc2)cc1 (stereo unspecified),2.0,-2.5,10.2,2.8,-9.0,-7.9,5547
COc1cccc(NC(=O)CN(C)C(=O)Cc2ccc(Cl)cc2Cl)c1,8.7,-2.4,1.1,-0.4,-1.9,-12.7,3890
COc1ccc(/C=C2\SC(=S)N(CCC(=O)N3CCCCC3CCO)C2=O)cc1 (stereo unspecified),0.2,2.6,2.9,2.0,1.0,8.6,4526
Cc1ccc(C)c(NC(=O)C(Sc2nc3ccccc3c(=O)n2CC(C)C)c2ccccc2)c1 (stereo unspecified),-1.0,19.4,-2.6,5.4,9.9,37.8,2601
CC1Cc2nc(SCC(=O)N3CCN(c4ccccc4)CC3)n(C)c(=O)c2S1 (stereo unspecified),-14.7,2.3,2.8,-11.8,-12.4,-5.2,5289
CCCn1nnc(NC(=O)C(C)C)n1,1.4,5.7,1.6,4.9,5.7,-7.3,3617
O=c1c2ccccc2nc(CSc2ncnc3nc[nH]c23)n1-c1ccccc1Cl,-0.7,x,x,0.5,-8.0,0.6,4837
CCN(CC)C(=S)NC(=O)c1ccc(F)cc1,-4.0,1.1,9.6,1.4,-16.3,-3.6,2148
CSc1ccccc1C(=O)N(C)Cc1ccccc1,-4.6,5.5,4.2,5.2,-1.4,2.5,4645
CC(=O)O[C@H]1C[C@@H]2CC[C@@H]3[C@H](CC[C@]4(C)C(=O)CC[C@@H]34)[C@@]2(C)C[C@@H]1OC(C)=O,4.9,x,x,2.4,-12.3,x,5357
CCc1ccc(/C=C2\Oc3ccc(C(=O)OC)cc3C2=O)cc1,-20.7,3.3,-9.9,-1.1,-31.3,-14.4,2627
Cc1cccc(NC(=O)NC(=S)NC(=O)c2ccccc2)c1,x,x,x,x,-36.8,1.1,2393
CCC(C)C(NC(=O)C1CCC(C)CC1)C(=O)NCCCN1CCCCC1CC (stereo unspecified),-3.2,5.7,1.2,4.2,-12.8,-8.3,5314
CCN(CC)CCCNC(=O)Cc1c(C(=O)O)n(C)c2ccccc12,8.0,8.2,8.1,5.5,-14.0,-12.1,2781
COc1ccc(-c2cc(C(N)=O)nc(N3CCCCCC3)n2)cc1,-2.3,8.3,7.2,1.3,-0.8,-17.6,2893
O=C(NCCc1ccccc1)c1cccs1,11.7,x,x,-0.9,-121.7,-1.3,3930
COc1ccc(N2CCOCC2)c(NC(=O)c2cc3ccccc3o2)c1,-4.3,1.1,-4.3,1.8,2.3,2.7,2990
Cc1cc2oc(=O)cc(CN3CCOCC3)c2cc1Cl,3.6,0.5,-1.6,3.1,4.9,4.4,5087
COc1cc(C=NNC(=O)c2ccccc2)ccc1O,7.2,1.8,-0.5,2.5,x,x,x

# Single records, from the list above. Order of screens: ugtP null kill | Mtb hypoxia inh | Mtb hypoxia inh growth | Sa RN4220 lethal | PrP UTR inh | BJeLR viability | Bead autofluor
# Record of CCCn1nnc(NC(=O)C(C)C)n1 = 1.4 | 5.7 | 1.6 | 4.9 | 5.7 | -7.3 | 3617
# Record of CC1Cc2nc(SCC(=O)N3CCN(c4ccccc4)CC3)n(C)c(=O)c2S1 (stereo unspecified) = -14.7 | 2.3 | 2.8 | -11.8 | -12.4 | -5.2 | 5289
# Record of Cc1ccc(NC(=O)c2ccc(NC(=O)C3CCCCC3C(=O)O)cc2)cc1 (stereo unspecified) = 2.0 | -2.5 | 10.2 | 2.8 | -9.0 | -7.9 | 5547
# Record of COc1ccc(N2CCOCC2)c(NC(=O)c2cc3ccccc3o2)c1 = -4.3 | 1.1 | -4.3 | 1.8 | 2.3 | 2.7 | 2990

# Continuation:
SMILES,ugtP null kill,Mtb hypoxia inh,Mtb hypoxia inh growth,Sa RN4220 lethal,PrP UTR inh,BJeLR viability,Bead autofluor
COc1ccc(CNS(=O)(=O)c2cc(CN3C(=O)c4cccnc4C3=O)ccc2OC)cc1,x,x,x,x,-30.8,-8.2,5189
O=c1c2c3c(sc2nc2n1CCCC2)CCC3,2.5,7.8,10.3,4.1,-2.7,-0.3,8268
CC1(C)NC(=O)N(CCOc2ccc3c(c2)CCC3)C1=O,7.9,6.4,11.7,4.0,x,-4.5,9949
Cc1[nH]c2ccccc2c(=O)c1CN1CCCCCC1,3.4,-5.9,-0.6,4.6,-12.9,-8.8,3388
CCc1ccccc1NC(=O)CSc1nnc(-c2ccncc2)o1,1.6,12.6,8.3,2.1,-7.9,3.1,4929
Cc1ccc2c(c1)N(C(=O)CCC(=O)NC1CCC(C)CC1)CCO2 (stereo unspecified),-3.3,1.0,4.0,3.8,-8.8,-1.7,5976
CC1(C)Cc2c(cnn2-c2cccc(F)c2)C(NC(=O)C2CCOCC2)C1 (stereo unspecified),8.5,-1.7,0.9,0.8,-20.7,-3.6,6003
Cc1cc(Cl)c(C(=O)Nc2cccc(C(F)(F)F)c2)c(C)n1,3.6,18.0,-6.8,-3.9,-30.1,-0.8,4154
CCOc1ccc(N(CC(=O)NC2CCCC2)S(=O)(=O)c2c(C)[nH]c(=O)[nH]c2=O)cc1,8.8,3.5,6.6,0.1,-1.4,1.7,4991
Cc1ccsc1C=NNc1nc(=O)[nH]nc1C,0.9,-0.9,6.3,4.9,x,x,x
COc1ccc(NC(=O)CC2SC(=O)NC2=O)cc1 (stereo unspecified),5.5,11.0,10.4,8.1,-5.0,1.3,2470
CC(=O)c1ccc(COC(=O)c2ccccc2NC(=O)C(C)C)cc1,2.5,13.5,-0.5,1.5,x,-10.6,x
Cc1cccc(C)c1NC(=O)Cn1c(CN2CCCCC2)nc2ccccc2c1=O,-0.3,6.6,3.6,6.2,-11.8,7.0,3051
Cc1c(C(=O)N2CCN(Cc3ccccc3)CC2)oc2c1C(=O)CCC2,6.9,17.2,0.9,-0.2,-11.6,-6.2,5105
COc1cc(OC)cc(C(=O)NC(=S)NNC(=O)[C@H]2C[C@@H]2c2ccccc2)c1,22.2,10.3,-0.5,41.7,-20.2,-2.7,3935
NS(=O)(=O)c1ccc(N=Nc2c(-c3ccccc3)[nH]n(-c3nc(-c4ccccc4)cs3)c2=O)cc1,1.1,3.6,1.0,-3.3,3.4,12.0,7156
CCCCc1ccc(NC(=O)CSC2=NN3CCCC(=O)N=C3S2)cc1,8.1,13.7,-2.3,-3.6,-23.0,-4.1,3997
CC(C)(C)c1ccc(S(=O)(=O)NCc2ccc(C(=O)N3CCOCC3)cc2)cc1,-4.0,-2.1,1.4,0.3,0.1,7.5,10610
C=COC(=O)CSc1snc(SCC(=O)OC)c1C#N,5.4,x,x,5.6,-14.6,-5.7,2372
Nc1nnnn1CC(=O)N/N=C/c1cc([N+](=O)[O-])ccc1O,x,x,x,x,-21.9,5.6,4408
N#CC1(NC(=O)CN2C(=O)NC3(CCCCCC3)C2=O)CCCCC1,8.0,6.0,-1.7,3.3,-26.2,x,4290
CC1CCN(S(=O)(=O)c2cc(F)ccc2CN2C(=O)c3cccnc3C2=O)CC1,4.7,2.3,9.3,2.2,-11.3,5.1,6067
Cc1ccccc1Nc1cccc2nonc12,-9.8,7.8,3.9,9.3,-12.3,-8.1,3185
CC1(C)CC2CC(C)(CN2C(=O)COC(=O)c2n[nH]c(=O)c3ccccc23)C1 (stereo unspecified),-5.0,4.5,8.5,-2.0,5.3,-0.1,3216
Cc1ccc(N=C2NC(=O)/C(=C\c3ccsc3)S2)c(C)c1,-29.3,2.4,1.5,-12.0,-25.9,-9.1,10087
Cc1cccc(C=NNC(=O)c2ccc(Br)cc2)c1,-3.7,6.4,5.2,-4.2,x,x,x
N#CCSc1ncnc2sc3c(c12)CCC3,-7.4,0.4,0.5,0.1,-2.5,0.9,9078
C=C(C)C(=O)Nc1cccc(C2=NOC3(C2)CC(C(N)=O)N(C(=O)CCCCC)C3)c1 (stereo unspecified),-3.3,10.6,5.4,2.6,x,x,x
CN(C)S(=O)(=O)n1cnc(-c2ccccc2)c1-c1ccccc1,2.1,10.0,15.8,6.0,-17.2,2.1,4398
COc1ccc(CN(C)CC(=O)NC(=O)NC2CCCCC2)cc1,7.8,-1.6,3.9,4.8,-8.7,x,3172
